# AF4-AF9 inh – MLL-AF4/AF9 protein interaction inhibition; inhibition, % at 10 µM; AlphaScreen, biotin-AF4 peptide binding to FLAG-AF9; P42568; 350,000 tested, 0.47% active;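 active = every replicate reaching a set inhibition limit, whatever the replicate mean, cut at about 25% in these data; inconclusive = mean inhibition reaches that limit but some replicates miss it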;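 note: 0% = plate neutral control median and 100% = total signal loss; the record names both 10 and 1 µM as test concentration; the first replicate is given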
# Target sequence (P42568 whole entry, looked up): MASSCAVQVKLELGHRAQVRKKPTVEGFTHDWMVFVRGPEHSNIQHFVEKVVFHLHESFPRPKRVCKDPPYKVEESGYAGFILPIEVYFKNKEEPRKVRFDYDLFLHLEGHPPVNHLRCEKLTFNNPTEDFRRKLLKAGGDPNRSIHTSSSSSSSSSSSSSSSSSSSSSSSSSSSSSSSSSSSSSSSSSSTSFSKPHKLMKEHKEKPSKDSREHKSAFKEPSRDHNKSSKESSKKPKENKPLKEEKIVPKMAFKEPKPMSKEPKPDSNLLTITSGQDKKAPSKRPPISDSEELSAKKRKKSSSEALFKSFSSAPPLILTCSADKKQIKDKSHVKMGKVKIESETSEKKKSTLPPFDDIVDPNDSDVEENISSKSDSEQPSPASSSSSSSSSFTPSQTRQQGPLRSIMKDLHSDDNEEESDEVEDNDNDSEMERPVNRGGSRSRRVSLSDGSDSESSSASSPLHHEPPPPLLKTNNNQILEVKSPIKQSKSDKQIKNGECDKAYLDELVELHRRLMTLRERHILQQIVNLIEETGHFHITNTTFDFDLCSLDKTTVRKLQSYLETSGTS
# * hit, by the source's call; ? = inconclusive. The list is partial. The share of hits here may be higher or lower than overall.
SMILES,AF4-AF9 inh
COc1ccccc1C=NN1CCCCCC1,10.0
COc1ccc(NC(=O)N2CC(=O)N3[C@H](C2)[C@H](c2ccc(/C=C/c4ccccc4)cc2)[C@@H]3CO)cc1,3.4
CCCC(=O)Nc1ccc2c(c1)OC[C@@H](C)N(C(=O)CC)C[C@H](C)[C@@H](OC)CN(C)C2=O,-1.5
CCCNC(=O)Nc1ccc2c(c1)C(=O)N(C)[C@H]1CC[C@H](CC(=O)NCc3ccccc3)O[C@@H]1CO2,-11.8
C[C@@H]1CCCCO[C@H](CN(C)S(=O)(=O)c2ccc(F)cc2)[C@@H](C)CN([C@H](C)CO)C(=O)c2cc(NS(C)(=O)=O)ccc2O1,-3.8
CCNC(=O)C[C@@H]1CC[C@@H](NC(=O)C2CCOCC2)[C@H](CO)O1,1.2
CN1c2ccc(-c3ccccc3F)cc2[C@H]2[C@H](CCN2C(=O)Cc2ccccn2)[C@H]1CO,5.3
C[C@@H]1CN([C@@H](C)CO)S(=O)(=O)c2ccc(C3=CCCC3)cc2O[C@H]1CN(C)C(=O)C1CCCCC1,4.5
COc1ccc(-c2ccc([C@@H]3[C@@H](CO)N4C(=O)CN(Cc5ccccc5)C[C@H]34)cc2)cc1,0.8
COc1ccc2c3c([nH]c2c1)[C@@H](CO)N(C(=O)C1CC1)CC31CCN(Cc2nccs2)CC1,-0.7
CN(C)CC#Cc1ccc([C@@H]2[C@H](CO)N3C(=O)CN(C(=O)c4ccc(F)cc4)C[C@@H]23)cc1,0.1
COc1ccc([C@H]2C[C@@H](O)[C@H](n3cc(C4CC4)nn3)CN2C(=O)c2cccs2)cc1,-1.6
CCCC#Cc1cnc2c(c1)C(=O)N([C@@H](C)CO)C[C@@H](C)[C@H](CN(C)C(=O)CN1CCOCC1)O2,2.1
C[C@@H]1CN([C@@H](C)CO)C(=O)c2cc(C#Cc3cccc(F)c3)cnc2O[C@@H]1CN(C)Cc1ccccn1,-8.6
CN1C[C@@H](O)COC[C@@H]2O[C@H](CC(=O)NC3CCCC3)CC[C@H]21,-1.4
O=C(C[C@@H]1C[C@H]2c3cc(NC(=O)C4CCC4)ccc3O[C@H]2[C@H](CO)O1)NCc1ccc(Cl)cc1,-1.2
C[C@H]1CCCCO[C@H](CN(C)Cc2ccc(C(F)(F)F)cc2)[C@@H](C)CN([C@@H](C)CO)C(=O)c2cc(NC(=O)NC3CCCCC3)ccc2O1,-2.1
O=C(C[C@H]1C[C@@H]2c3cc(NC(=O)NC4CCCC4)ccc3O[C@@H]2[C@@H](CO)O1)NC1CCCC1,2.3
C=Cc1ccc(Cn2c(C)c(C(=O)NCc3cccc(C(F)(F)F)c3)sc2=O)cc1,-1.4
O=C(c1cccnc1)N1C[C@H]2[C@@H](c3ccccc31)[C@H](CO)N2C(=O)Nc1ccccc1Cl,-2.7
C[C@H]1CCCCO[C@@H](CN(C)C(=O)c2ccccc2)[C@@H](C)CN([C@@H](C)CO)C(=O)c2cc(NC(=O)c3ccncc3)ccc2O1,-5.4
COc1cccc(S(=O)(=O)N(C)C[C@H]2OCc3ccccc3-c3ccccc3C(=O)N([C@@H](C)CO)C[C@@H]2C)c1,0.1
O=C1NC[C@H](CC2CCCCC2)N(CCC23CC4CC(CC(C4)C2)C3)C1=O,-4.2
C[C@H](CO)N1C[C@H](C)[C@@H](CN(C)Cc2cccc(F)c2)Oc2cc(-c3ccccc3)ccc2S1(=O)=O,-4.0
C[C@H](CO)N1C[C@H](C)[C@@H](CN(C)Cc2ccc(Cl)c(Cl)c2)Oc2c(NC(=O)Nc3ccc(F)cc3)cccc2C1=O,1.0

# 3 consecutive compounds out of the list so far, quoted:
SMILES,AF4-AF9 inh
COc1ccccc1C=NN1CCCCCC1,10.0
COc1ccc(NC(=O)N2CC(=O)N3[C@H](C2)[C@H](c2ccc(/C=C/c4ccccc4)cc2)[C@@H]3CO)cc1,3.4
CCCC(=O)Nc1ccc2c(c1)OC[C@@H](C)N(C(=O)CC)C[C@H](C)[C@@H](OC)CN(C)C2=O,-1.5

# The list continues.
SMILES,AF4-AF9 inh
C[C@@H]1CN([C@H](C)CO)C(=O)Cc2cc(NC(=O)Cc3cn(C)c4ccccc34)ccc2O[C@H]1CN(C)Cc1ccc(-c2ccccc2)cc1,1.4
COc1ccc(NC(=O)Nc2ccc3c(c2)CC(=O)N([C@H](C)CO)C[C@@H](C)[C@H](CN(C)C(=O)Nc2ccc(F)cc2)O3)cc1,-3.0
COc1ccc(CNC(=O)C[C@H]2CC[C@H](NC(=O)c3cccc(F)c3)[C@@H](CO)O2)cc1,0.2
O=C(C[C@@H]1CC[C@@H]2[C@H](COC[C@@H](O)CN2Cc2ccc(F)cc2)O1)NCc1ccccc1Cl,?
C[C@H]1CN([C@@H](C)CO)C(=O)c2cccc(NS(=O)(=O)c3cn(C)cn3)c2O[C@@H]1CN(C)C,-2.4
O=C(Nc1ccccc1)N1CCCCN2[C@H](CO)[C@@H](c3ccc(-c4ccncc4)cc3)[C@@H]2C1,-4.1
O=C(C[C@@H]1CC[C@H]2[C@@H](COC[C@H](O)CN2C(=O)c2ccccn2)O1)N1CCN(c2ccccc2)CC1,-1.0
CCc1nc2c(OCCc3cccc(OC)c3)cccn2c1N(C)C(=O)c1cccs1,3.1
N#C[C@@H]1[C@@H](c2ccccc2-c2ccccc2F)[C@H](CO)N1C(=O)C1CCC1,-4.2
CC(C)C#Cc1cnc2c(c1)C(=O)N([C@H](C)CO)C[C@@H](C)[C@H](CN(C)C(=O)Nc1ccc(F)cc1)O2,-12.3
CCCC(=O)Nc1ccc2c(c1)OC[C@H](C)N(C(=O)C1CCCC1)C[C@@H](C)[C@@H](OC)CN(C)C2=O,-2.8
C[C@@H]1CN([C@H](C)CO)C(=O)c2cc(-c3cncnc3)cnc2O[C@H]1CN(C)C(=O)Cc1ccccn1,1.0
C[C@H]1CN([C@@H](C)CO)C(=O)c2ccccc2-c2ccccc2CO[C@H]1CN(C)Cc1cccc(F)c1,-10.5
COc1ccc(CN(C)C[C@H]2Oc3ccc(NC(=O)Nc4c(C)noc4C)cc3CC(=O)N([C@H](C)CO)C[C@@H]2C)cc1,-1.9
O=C(C[C@H]1CC[C@@H]2[C@H](COC[C@@H](O)CN2C(=O)C2CCCC2)O1)NCc1ccncc1,-11.2
CC(C)C#Cc1cnc2c(c1)C(=O)N([C@@H](C)CO)C[C@@H](C)[C@H](CN(C)C(=O)CN1CCOCC1)O2,-4.5
COc1ccc(S(=O)(=O)N(C)C[C@@H]2Oc3c(NS(C)(=O)=O)cccc3C(=O)N([C@H](C)CO)C[C@H]2C)cc1,-1.2
CC(=O)Nc1cccc(-c2ccnc3c2CC(C(=O)Nc2cccc(N(C)C)c2)O3)c1 (centres undefined),6.8
Cc1noc(C)c1S(=O)(=O)Nc1ccc2c(c1)C(=O)N([C@@H](C)CO)C[C@@H](C)[C@@H](CN(C)C(=O)c1ccncc1)OCCCC[C@@H](C)O2,-1.2
CS(=O)(=O)N1CCCCN2[C@H](CO)[C@@H](c3ccc(-c4cccc(C#N)c4)cc3)[C@H]2C1,8.7
CN1CCN(C(=O)C[C@H]2CC[C@@H](NC(=O)Cc3ccccn3)[C@H](CO)O2)CC1,-2.8
COc1cccc(-c2cnc3c(c2)C(=O)N([C@H](C)CO)C[C@H](C)[C@H](CN(C)S(=O)(=O)c2cccc(OC)c2)O3)c1,-4.4
CC(C)C#Cc1ccc([C@H]2[C@H](C#N)N(C(=O)C3CC3)[C@H]2CO)cc1,-10.7
COCCNC(=O)C[C@H]1C[C@@H]2c3cc(NC(=O)c4cccnc4)ccc3O[C@@H]2[C@@H](CO)O1,-1.3
O=C(C[C@H]1CC[C@H](NC(=O)Nc2ccc3c(c2)OCO3)[C@H](CO)O1)NCc1ccc(F)cc1,-0.2
# (more compounds)
SMILES,AF4-AF9 inh
Cc1cc(C(=O)Nc2cccc3c2O[C@@H](CN(C)Cc2ccc(-c4ccccc4)cc2)[C@@H](C)CN([C@H](C)CO)C3=O)n(C)n1,-4.3
O=C(NCC1CCN(C(=O)C(=O)c2cc3ccccc3o2)CC1)c1cc(C(F)(F)F)cc(C(F)(F)F)c1,2.5
CCc1nc2c(OCc3ccccc3OC)cccn2c1N(C)C(=O)C(C)C,0.1
O=C(C[C@H]1CC[C@@H]2[C@H](COC[C@H](O)CN2Cc2ccc(Oc3ccccc3)cc2)O1)N1CCN(c2ccccc2)CC1,10.4
COc1ccc(S(=O)(=O)Nc2ccc3c(c2)C(=O)N([C@H](C)CO)C[C@H](C)[C@H](CN(C)C(=O)Nc2ccc(C(F)(F)F)cc2)OCCCC[C@@H](C)O3)cc1,-2.3
COCC(=O)N1C[C@H]2[C@@H](c3ccccc31)[C@@H](CO)N2Cc1ccc(OC)cc1,-0.2
Cc1noc(C)c1S(=O)(=O)N(C)C[C@H]1Oc2ccc(NS(C)(=O)=O)cc2CC(=O)N([C@H](C)CO)C[C@H]1C,-2.5
CN1C[C@@H]2[C@@H]3C(=O)N(C)C(=O)[C@@H]3[C@](C)(C1=O)N2C(=O)c1ccc(Br)cc1,0.7
CC(=O)N[C@H]1CC[C@@H](CCNC(=O)Nc2ccc(C(F)(F)F)cc2)O[C@@H]1CO,6.2
CN(C)CCN1CCN([C@H]2CS(=O)(=O)N[C@@H]2COCc2ccccc2)CC1,2.9
O=C(Nc1ccccc1)[C@H]1[C@H](CO)[C@H]2Cn3c(ccc(C4=CCCC4)c3=O)[C@H]2N1Cc1cocn1,-1.1
N#Cc1cc(NC(=O)c2ccc(Cl)cc2)ccc1Sc1ccccc1,-0.4
C[C@@H]1CCCCO[C@H](CN(C)Cc2ccc3c(c2)OCO3)[C@@H](C)CN([C@@H](C)CO)C(=O)c2cc(NS(=O)(=O)c3ccc(Cl)cc3)ccc2O1,14.6
Cc1noc(C)c1NC(=O)Nc1ccc2c(c1)C(=O)N([C@@H](C)CO)C[C@@H](C)[C@@H](CN(C)S(C)(=O)=O)O2,0.0
C[C@H](CO)N1C[C@H](C)[C@H](CN(C)C)Oc2ccc(NC(=O)NC3CCCCC3)cc2C1=O,-3.0
CNC[C@@H]1Oc2cc(C#C[C@@H](C)O)ccc2S(=O)(=O)N([C@H](C)CO)C[C@H]1C,0.3
C[C@H]1CN([C@@H](C)CO)C(=O)Cc2cc(NS(=O)(=O)c3ccc(Cl)cc3)ccc2O[C@@H]1CN(C)Cc1ccc(C(F)(F)F)cc1,-0.2
CC(C)[Si]1(C(C)C)OCC2OC(n3cnc4c(N)ncnc43)C(N)C2O[Si](C(C)C)(C(C)C)O1 (centres undefined),-3.1
CCC(=O)N1CC2(CN(C(C)=O)C2)c2c([nH]c3cc(OC)ccc23)[C@H]1CO,-9.8
CO[C@H]1CN(C)C(=O)c2ccc(NC(=O)C3CC3)cc2OC[C@@H](C)N(C(=O)c2ccncc2)C[C@@H]1C,-0.4
O=C(Cc1ccc(NC(=O)C2CCN(C(=O)C3CCCCC3)CC2)cc1)Nc1ccc(C(=O)N2CCOCC2)cc1,14.6
CC(=O)Oc1ccc(Cn2c(C)c(C(=O)NC3CC3)sc2=O)cc1,-3.0
COCC(=O)N1CCCCN2[C@H](C1)[C@@H](c1ccc(-c3ccccc3)cc1)[C@@H]2CO,-4.1
CNC[C@H]1OCCCC[C@@H](C)Oc2ccc(NS(=O)(=O)c3ccc(F)cc3)cc2C(=O)N([C@H](C)CO)C[C@@H]1C,-1.9
CCCC#Cc1ccc2c(c1)O[C@@H](CN(C)C(=O)c1ccccc1F)[C@@H](C)CN([C@@H](C)CO)S2(=O)=O,-0.2

# Pulled by structure from the list above:
SMILES,AF4-AF9 inh
CCc1nc2c(OCc3ccccc3OC)cccn2c1N(C)C(=O)C(C)C,0.1
C[C@H](CO)N1C[C@H](C)[C@H](CN(C)C)Oc2ccc(NC(=O)NC3CCCCC3)cc2C1=O,-3.0
COc1ccc(S(=O)(=O)Nc2ccc3c(c2)C(=O)N([C@H](C)CO)C[C@H](C)[C@H](CN(C)C(=O)Nc2ccc(C(F)(F)F)cc2)OCCCC[C@@H](C)O3)cc1,-2.3
COCC(=O)N1C[C@H]2[C@@H](c3ccccc31)[C@@H](CO)N2Cc1ccc(OC)cc1,-0.2
N#Cc1cc(NC(=O)c2ccc(Cl)cc2)ccc1Sc1ccccc1,-0.4

# (further entries)
SMILES,AF4-AF9 inh
CCc1nc2ccc(C(=O)Nc3ccc(OC)c(OC)c3)cn2c1N(CCC(C)C)CCN(C)C,6.5
COc1cccc(-c2ccc3c(c2)[C@@H]2[C@@H](CCN2S(=O)(=O)c2ccccc2F)[C@H](CO)N3)c1,1.8
O=C(c1ccncc1)N1CCCCN2[C@H](C1)[C@H](c1ccc(-c3ccccc3)cc1)[C@@H]2CO,15.0
COc1ccc(S(=O)(=O)Nc2ccc3c(c2)C(=O)N([C@H](C)CO)C[C@H](C)[C@H](CN(C)CC2CC2)OCCCC[C@@H](C)O3)cc1,-1.4
c1cc(-c2ccc3[nH]ccc3c2)n2ccnc2c1,0.9
C[C@@H]1CN([C@@H](C)CO)C(=O)c2c(c3ccccc3n2C)-c2ccccc2CO[C@@H]1CN(C)C(=O)c1ccc(F)cc1,1.4
O=C([C@H]1[C@H](CO)[C@H]2Cn3c(cccc3=O)[C@@H]1N2CC1CCCCC1)N1CCOCC1,-2.0
CCS(=O)(=O)Nc1ccc2c(c1)C(=O)N(C)C[C@H](OC)[C@H](C)CN[C@@H](C)CO2,-1.5
O=C(c1cc2c(c(-c3cccc(-c4ccncc4)c3)n1)[C@H](CCO)N(C(=O)c1ccc3c(c1)OCO3)C2)N1CCOCC1,1.3
CO[C@@H]1CN(C)C(=O)c2ccc(NC(=O)C3CCOCC3)cc2OC[C@H](C)N(Cc2nccs2)C[C@@H]1C,3.3
C[C@H]1CN([C@@H](C)CO)C(=O)c2cccc(NS(C)(=O)=O)c2O[C@H]1CN(C)Cc1ccc(C(=O)Nc2ccccc2N)cc1,0.9
COc1ccccc1C(=O)Nc1ccc2c(c1)C(=O)N(C)C[C@@H](OC)[C@H](C)CN(C(C)=O)[C@@H](C)CO2,-3.0
